PINK1 modulator: PINK1 expression modulation | PINK1 immunofluorescence, high-content cytometry, 24 h | Potency, µM (titrated, usually from 76.6 µM), without a hit: top-dose activation (PINK1 increase), actives largely listed as activators | 410,000 tested, 0.2% active; active = well fitted activation curve with a large enough effect; inconclusive = small, poorly fitted or top-dose-only effect; inactive = flat fitted curve, though single readings scatter; cell line not stated here;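 note: potency is the fitted concentration of half-maximal effect; % of control where 0% means no effect; nearly all actives have a fitted effect of over 65% in size; a mitochondrial uncoupler was the plate control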
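Compound titrations (5 concentrations, 24 h) on a stable cell line; DMSO and CCCP controls. Endpoint: fixed-cell PINK1 immunofluorescence with mitochondrial, cell and nuclear markers, scanned by microplate cytometer.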
TRPV1 potentiator: potentiators of human vanilloid receptor 1 (TRPV1). TRPV1-expressing cells, Fluo-8 calcium influx, capsaicin EC20 potentiation; host cell line not named in the record; control for the full effect not named in the record. Q8NER1. potentiation, % at 8.33 µM. 320,000 tested, 0.02% active; active means potentiation above 80%; inconclusive means 30% to 80%; inactive means below 30%; note: 0% is about no effect
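TRPV1-expressing cells were cultured overnight at 35.5C and loaded with Fluo-8 calcium dye for 40 to 90 min at room temperature. After a 10 s baseline, compound was added and calcium influx was read kinetically for 3 min (ex 480/em 520 nm).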
D2 PAM: positive allosteric modulators of human D2 dopamine receptor. AID 624464. potentiation, % (no concentration beside the values). P14416. 360,000 tested, 0.23% active. DiscoveRx D2 beta-arrestin cells, luminescence, 90 min; 100% = 57 uM dopamine signal; active = potentiation of 50% or more; inconclusive = 30% to 50%; inactive = 30% or less;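 note: compound concentration not given in the record; tested on top of an EC20 dose of dopamine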
Target sequence (P14416 whole entry, looked up): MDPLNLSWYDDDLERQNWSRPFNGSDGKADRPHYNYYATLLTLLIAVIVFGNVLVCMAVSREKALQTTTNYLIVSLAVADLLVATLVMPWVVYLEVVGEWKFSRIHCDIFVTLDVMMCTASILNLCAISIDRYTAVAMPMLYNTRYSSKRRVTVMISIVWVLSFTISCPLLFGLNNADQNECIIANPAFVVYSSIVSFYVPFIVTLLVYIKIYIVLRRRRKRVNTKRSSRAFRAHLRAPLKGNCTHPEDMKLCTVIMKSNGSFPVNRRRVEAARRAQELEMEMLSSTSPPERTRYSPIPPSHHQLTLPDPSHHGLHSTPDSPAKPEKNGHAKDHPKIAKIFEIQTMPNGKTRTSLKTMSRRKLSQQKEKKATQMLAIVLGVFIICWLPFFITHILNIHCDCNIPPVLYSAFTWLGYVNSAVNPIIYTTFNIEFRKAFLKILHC
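PathHunter beta-arrestin assay in DiscoveRx D2 cells. Compounds were added with an EC20 of dopamine (50 nM final) for 90 min at 37 deg C. Luminescence was read 1 h after detection reagent, with 57 uM dopamine as the EC100 control.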
Sfp inh: inhibitors of Bacillus subtilis Sfp phosphopantetheinyl transferase; 310,000 tested, 3.5% active; Biochemical Sfp PPTase activity, qHTS; Potency, µM, for inactives: max response, negative = inhibition, usual class: inhibitors; Q9F4F7; active = well fitted inhibition curve with a large enough effect; inconclusive = small, poorly fitted or top-dose-only effect, or another doubt; inactive = no such curve, though single readings can be large or run the other way;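 note: the enzyme is Sfp with the accession as filed and its product quenches rhodamine fluorescence; potency is the fitted concentration of half-maximal effect; 0% = enzyme reaction without inhibitor and -100% = no enzyme wells; top concentration of the series not given in the record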
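After 15 min at room temperature with compound, 15 nM Sfp received 5 uM rhodamine-CoA plus 12.5 uM BHQ-2-ybbR (50 mM Hepes pH 7.6, 10 mM MgCl2). Rate came from the fluorescence difference over 30 min, ex 525/em 598 nm.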
CtBP-E1A blk: CtBP/E1A binding inhibition. AID 651724. 340,000 tested, 0.49% active. activity change, % (no concentration beside the values). AlphaScreen GST-E1A/His-CtBP binding, 1536-well; hits give low values; control for the full effect not named in the record; in the data active means activity change below about -65%; inconclusive means about -30% to -65%; inactive means above about -30%; note: % is set by controls: 0 for no effect and ±100 for the full control effect; compound concentration not given in the record
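Steps: dispense buffer (Tris pH 8.0, NaCl 300 mM, TCEP 1 mM, BSA, Tween 20); add 5X protein mix (GST-E1A, His-CtBP, 125 nM each); pin 23 nL compound; 2 h at 37 °C, dark; add 5X beads (50 ug/mL); 1 h; read.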
D2 ag: human D2 receptor agonism in beta-arrestin assay; P14416; DiscoveRx PathHunter D2 beta-arrestin, luminescence, 90 min; 100% = 57 uM dopamine signal; activation, % (concentration not given with the values); 360,000 tested, 0.084% active; in the data active = activation above about 40%; inconclusive = about 15% to 40%; inactive = below about 15%; note: compound concentration not given in the record; the text of the record calls up to 30% inactive
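Agonist mode: compounds alone added to overnight-plated D2 PathHunter cells for 90 min at 37 C, with 57 uM final dopamine (EC100) defining full response. Beta-arrestin recruitment detected by chemiluminescent reagent, read after 1 h at ambient temperature.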
Six1-Eya2 blk: Six1/Eya2 interaction inhibition; AlphaScreen GST-Six1/His-Eya2 binding, biochemical; hits give low values; control for the full effect not named in the record; Q15475+O00167; AID 651725; 360,000 tested, 0.56% active; activity change, % (concentration not given with the values); in the data active = activity change below about -65%; inconclusive = about -30% to -65%; inactive = above about -30%; note: % is set by controls: 0 for no effect and ±100 for the full control effect
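Six1/Eya2 binding was read as AlphaScreen signal after compounds were pinned into GST-Six1 plus His-tagged Eya2 (5X stock 250/500 nM) in pH 8.0 Tris/NaCl/TCEP buffer, beads added, then incubated 1 h, 37 C, dark.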
* hit, by the source's call; ? = inconclusive; / = not tested or not shown; & = joins results of further samples; [ ] = another dose, or the depositor's remark.

SMILES	PINK1 modulator	TRPV1 potentiator	D2 PAM	Sfp inh	CtBP-E1A blk	D2 ag	Six1-Eya2 blk
O=C(O)CCc1nn2cc(-c3ccccc3)nc2[nH]c1=O	-0.2%	-4.3	-12.6	-15.4%	-0.2	-5.0	-6.7
O=[N+]([O-])c1ccc(O)c(/C=N/Nc2ncnc3c2cnn3-c2ccccc2)c1	-1.4%	-8.1	-1.0	12.1%	?	?	-13.7
Cc1nnc(NC(=O)CSc2ncn(-c3ccccc3)n2)s1	2.5%	11.6	-1.1	14.9%	6.0	1.3	-1.6
Cc1c(C(=O)N(Cc2ccccc2)C(C)C)oc2ccc(S(=O)(=O)N3CCOCC3)cc12	1.1%	-10.0	27.1	7.4%	-8.2	7.8	-2.9
Cc1ccc(C(=O)NCC(c2ccco2)N2CCOCC2)cc1 (centres undefined)	-1.3%	-4.1	6.1	/	0.3	0.3	3.5
Cc1ccc(-c2nnc3n2N=C(c2ccccc2)CS3)cc1	1.1%	-9.2	-1.4	0.7%	4.2	-4.1	5.7
CCn1cc(/C=C/c2cc[n+](C)cc2)c2ccccc21	28.2µM*	11.6	-7.7	-8.0%	/	-9.2	20.7
Cn1c(=O)c2c(nc(NCc3ccccc3)n2CCCc2ccccc2)n(C)c1=O	-1.9%	-8.6	16.7	-4.5%	-9.7	-4.1	-9.2
Cc1cccc(C(=O)N[C@@H]2c3ccccc3C[C@@H]2O)n1	0.6%	/	-3.3	/	/	-2.6	-1.4
C/C(=N\NC(=O)c1cccc([N+](=O)[O-])c1)c1cccnc1	-0.2%	-0.4	-9.7	10.2%	/	0.2	0.2
Cc1cc(N2CCN(C)CC2)nc2ccc(NC(=S)N3CCN(c4cccc(Cl)c4)CC3)cc12	5.1%	1.7	-8.9	17.3%	3.1	0.9	9.1
CN(C(=O)CS(=O)(=O)c1cccc(Cl)c1)c1ccccc1	0.3%	-17.8	-4.3	11.6%	0.4	0.0	0.8
CN(C)c1ccc(C=NCCC2(O)CCOC(C)(C)C2)cc1 (centres undefined)	2.1%	2.9	-2.7	13.0%	4.5	2.1	13.4
COC(=O)c1nn(C23CC4CC(CC(C4)C2)C3)c2c1C(=O)N(c1ccc(F)cc1)C2=O	-0.8%	2.8	-2.2	10.3%	9.3	-2.9	14.3
COc1cc(OC)nc(/N=C/NO)n1	-0.4%	2.0	-7.2	8.2%	0.8	-1.4	14.1

One compound at a time, as listed above. Values in the order: PINK1 modulator, TRPV1 potentiator, D2 PAM, Sfp inh, CtBP-E1A blk, D2 ag, Six1-Eya2 blk
CCn1cc(/C=C/c2cc[n+](C)cc2)c2ccccc21 is listed with 28.2µM*, 11.6, -7.7, -8.0%, /, -9.2, 20.7
O=C(O)CCc1nn2cc(-c3ccccc3)nc2[nH]c1=O is listed with -0.2%, -4.3, -12.6, -15.4%, -0.2, -5.0, -6.7
COc1cc(OC)nc(/N=C/NO)n1 is listed with -0.4%, 2.0, -7.2, 8.2%, 0.8, -1.4, 14.1

Going on with the list.
SMILES	PINK1 modulator	TRPV1 potentiator	D2 PAM	Sfp inh	CtBP-E1A blk	D2 ag	Six1-Eya2 blk
COc1ccc(C(=O)NNC(=O)c2cc3cccc(OC)c3oc2=O)cc1	-1.5%	8.2	-2.4	20.5%	5.9	-1.0	3.2
COc1ccc(CN(C(=O)CN2C(=O)c3ccccc3S2(=O)=O)C(C(=O)NCC2CCCO2)c2ccco2)cc1 (centres undefined)	-0.7%	-11.4	-4.4	10.5%	-7.5	1.6	16.0
COc1ccc(C(=O)NC(=S)Nc2ccc(N3CCOCC3)c(Cl)c2)cc1[N+](=O)[O-]	1.3%	-10.9	-9.5	-0.4%	-0.9	-5.1	-24.7
CCCCN(C(=O)c1c(C)[nH]c(C(=O)OCC)c1C)c1ccccc1	28.9%[38.3 µM]	-19.6	-8.4	-11.6%	-2.9	2.3	-0.2
CCOc1ccccc1-n1nnnc1SCC(=O)Nc1cc2oc3ccccc3c2cc1OC	3.5%[38.3 µM]	?	-5.2	7.6%	8.4	2.3	3.8
O=C1NCCN1CCNS(=O)(=O)c1ccc2ccccc2c1	3.2%[38.3 µM]	5.8	7.1	16.1%	0.5	-0.9	-1.4
CC(C)C(=O)N1CCN(c2ccc(NC(=O)c3ccc([N+](=O)[O-])o3)cc2Cl)CC1	1.7%	-15.5	28.0	9.7%	-7.5	6.9	-9.8
O=C(OCC1COc2ccccc2O1)c1c(F)cccc1F (centres undefined)	1.6%[38.3 µM]	19.7	14.9	16.6%	35.3	0.0	25.3
CCC(C)[C@H](NC(=O)[C@@H]1Cc2c([nH]c3ccccc23)C2c3ccccc3C(=O)N21)C(=O)NCC1CCCO1 (some centres undefined)	1.6%	-16.2	-10.1	?	-4.0	6.2	-4.7
COc1cccc(NC(=O)NCc2cccn2C)c1	3.1%	10.2	3.5	8.7%	-1.4	1.6	-14.2
CC(=O)c1cc(C#N)c(SCc2ccc(F)cc2)nc1C	14.5%	-5.5	-24.2	8.1%	20.1	-4.2	31.1
COCCCC1CCN(C(=O)C2CCC(=O)N(C3CCCCCC3)C2)CC1 (centres undefined)	-1.3%	-5.6	-1.9	-5.2%	14.2	-1.7	12.8
CCS(=O)(=O)c1nc(S(=O)(=O)c2ccc(Cl)cc2)c(NCCCN2CCOCC2)s1	0.2%	25.3	-11.3	2.4%	7.3	-4.7	2.4
CC(C)CCNC(=O)C(c1cccnc1)N(CCc1ccccc1)C(=O)Cn1nnc2ccccc21 (centres undefined)	4.1%	1.4	-7.2	8.1%	-18.8	-1.7	0.9
CCOC(=O)COc1ccc(C)cc1-c1ccno1	-1.0%	-4.1	-1.1	13.8%	10.4	-2.2	8.5
O=C(NCc1cccs1)C(=O)NCC(c1ccco1)N1CCN(c2ccccc2)CC1 (centres undefined)	0.3%	-8.6	-11.8	12.0%	-18.3	9.5	-13.9
O=C(CSc1ccccc1)OCC(=O)N1CCN(C(=O)c2ccco2)CC1	-1.2%	0.3	-5.4	/	-3.6	3.2	-4.2
Cc1ccc2cc(/C=N/NC(=O)CN3CCCCC3)c(Cl)nc2c1	2.7%	-18.2	-6.6	8.5%	/	-4.0	-1.0
Cc1ccsc1C(C(=O)NC1CCCCC1)N(C(=O)c1csnn1)C1CC1 (centres undefined)	-0.6%	-10.0	-11.4	11.4%	8.0	-0.2	-1.1
CCCCCC(=O)N1CCCCC1	-0.7%	8.3	-3.6	10.8%	-2.9	-2.3	-3.2
CC(=O)Nc1cccc(C(=O)OC(C)C(=O)NC(=O)NC2CCCCC2)c1 (centres undefined)	1.9%	-2.3	1.0	/	8.1	-2.5	1.8
CCc1nc(Nc2ccc3c(c2)OCCO3)c2oc3ccccc3c2n1	7.3%	-5.8	-2.5	?	-1.5	-0.8	-5.7
N/C(=N\S(=O)(=O)c1ccc(Cl)s1)c1ccccc1	0.3%	-10.9	-6.4	11.6%	6.2	-1.0	6.3
COc1ccc(CNc2ccc(Cl)cc2)cc1Cn1ccnc1	9.5%	12.0	2.2	13.6%	?	0.9	?
CCN(CC)S(=O)(=O)c1ccc(-c2nnc3sc4cccc(C)c4n23)cc1	-0.7%	-17.5	-1.1	?	-3.4	-2.6	1.8
O=[N+]([O-])c1cccc(CNc2ccc3c(c2)CCC3)c1	13.6%	7.1	3.5	?	?	-1.9	?
CSc1ncc(C(=O)Nc2ccc(C(C)=O)cc2)c(-c2ccccc2)n1	1.0%&5.4%	28.9	-1.8	-7.9%	/	0.1	4.1
COCCNC(=O)C1CCCN(C(=O)c2ccnc(Cl)c2)CC1 (centres undefined)	3.1%	/	-2.4	/	5.3	-2.6	5.0
NS(=O)(=O)c1ccc(CCNC(=O)c2ccc3c(c2)N(Cc2ccccc2)CCS3)cc1	17.5%	-6.8	9.7	5.5%	5.4	3.3	1.9
CCOC(=O)c1ccc2nc(C)cc(Nc3cccc(C(=O)O)c3)c2c1	-3.0%	14.5	/	7.9%	/	/	/
CC(C)C(=O)Nc1nc(-c2ccccc2)ns1	2.2%	-17.9	-3.8	10.1%	-7.4	-2.0	15.4
CN(C)S(=O)(=O)c1ccc(N2CCCC2)c(C(=O)NCc2ccc(Cl)cc2)c1	-0.9%	3.2	0.5	-4.9%	1.8	-1.2	0.5
Cc1ccc2c(c1)S(=O)(=O)c1ccc3ccccc3c1N2	-0.5%	/	-13.2	/	-1.7	-0.7	5.1
CCOC(=O)c1ccc(NC(=S)N2CCN(C(=O)C3CCCO3)CC2)cc1 (centres undefined)	0.5%	-2.3	-8.4	9.1%	-9.8	2.5	-0.4
CCN(CC)S(=O)(=O)c1ccc2c(c1)nc(CCC(=O)Nc1cccc(C(F)(F)F)c1)n2CC	1.8%	29.6	-4.7	24.6%	-0.9	-1.7	-6.3
O=C1CSC(c2ccccc2F)N1c1ccccc1 (centres undefined)	5.6%[38.3 µM]	-0.6	-6.8	23.6%	3.1	-0.8	2.8
O=C(NN1C(=O)C2C(C1=O)C1C=CC2C12CC2)c1cccnc1 (centres undefined)	-0.5%	5.4	9.8	14.0%	18.8	1.8	-1.6
CC(C)NS(=O)(=O)c1ccc(CCC(=O)N2CCC(C(N)=O)CC2)cc1	-0.2%	9.4	-3.5	-22.6%	5.4	-1.2	-0.3
Cc1cccc(NC(=S)N2CCN(c3ccc(F)cc3)CC2)c1	2.2%	-12.9	-4.8	12.4%	2.8	5.2	-6.0
CCc1ccc(C(O)c2ncc(-c3cccc4ccccc34)[nH]2)cc1 (centres undefined)	?	/	-12.0	/	-17.2	-4.4	-17.4
CCOC(=O)c1c(NC(=O)CSc2nc3ccccc3c(=O)n2-c2ccccc2)sc(C(C)=O)c1C	3.9%	12.5	-2.4	6.2%	-3.7	-1.3	3.1
Cc1cc(C(=O)Nc2ccc(S(=O)(=O)Nc3onc(C)c3C)cc2)cs1	2.0%[38.3 µM]	10.6	-3.2	15.0%	0.9	1.0	1.2
COc1ccccc1CNCC(=O)Nc1ccc(C(F)(F)F)cc1	4.3%	-6.8	-17.6	-4.2%	-0.3	-0.4	9.2
CCOC(=O)C1CCCN(C(=O)C2CCN(S(=O)(=O)c3cccs3)CC2)C1 (centres undefined)	-0.6%[38.3 µM]	29.6	-7.7	20.1%	6.0	-1.0	-0.6
COc1ccccc1-c1cn[nH]c1-c1ccc(OCc2ccccc2)cc1O	3.5%	7.8	0.8	15.1%	-2.9	0.5	-4.7

Screening results deposited in PubChem BioAssay by National Center for Advancing Translational Sciences (NCATS).
